Source: PubChem BioAssay
DUX4 inh: inhibitors of DUX4-driven ZSCAN4 reporter expression, primary screen, 293T cells, Gaussia and Italica luciferase | 293T-iDUX4 ZSCAN4-Gaussia luciferase reporter, 24 h; hits give low values | activity change, negative = inhibition, % (concentration not given with the values) | 37,000 tested, 0.8% active;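 active = -10% or lower and over 25 points stronger than a control reporter; inconclusive = -10% or lower with a smaller gap; inactive = above -10%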;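 also: 0% = median of neutral control wells and -100% = median of positive control wells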
DUX4 inh difference: second read-out of DUX4 inh, no call of its own (marks repeat the call); Gaussia minus Italica difference, %; measured here: selective DUX4 reporter inhibition;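 worked out from the two reporters; negative = selective loss of the DUX4 reporter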
DUX4 inh control: second read-out of DUX4 inh, no call of its own (marks repeat the call); activity change, negative = inhibition, %; measured here: Italica tet-on control reporter;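 0 = neutral control and -100 = positive control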
Active calls of the source: *; ? = inconclusive; . = no result given; & = joins results of further samples. Some of the compounds tested, so the mix of outcomes need not match the whole.

Start of the data: the first 16 records, to show the layout:
C[C@@H]1CN([C@H](C)CO)C(=O)c2cc(NC(=O)Cc3cn(C)c4ccccc34)ccc2O[C@@H]1CN(C)Cc1ccc2c(c1)OCO2
  DUX4 inh: -2.7; DUX4 inh difference: -1.0; DUX4 inh control: -1.7
CC=Cc1ccc2n(c1=O)C[C@@H]1[C@@H](CO)[C@H](C(=O)NC3Cc4ccccc4C3)N(CC3CCCC3)[C@H]21 (mixture of isomers)
  DUX4 inh: -9.6; DUX4 inh difference: -7.6; DUX4 inh control: -1.9
CCC(=O)Nc1ccc2c(c1)OC[C@H](C)N(Cc1ccccc1F)C[C@@H](C)[C@H](OC)CN(C)C2=O
  DUX4 inh: -9.2; DUX4 inh difference: -6.3; DUX4 inh control: -2.9
O=C(c1ccncc1)N1C[C@@H]2[C@H](c3ccccc31)[C@H](CO)N2C(=O)c1ccncc1
  DUX4 inh: -3.8; DUX4 inh difference: 0.0; DUX4 inh control: -3.8
C[C@@H]1CN([C@@H](C)CO)C(=O)c2c(c3ccccc3n2C)-c2ccccc2CO[C@@H]1CN(C)C(=O)[C@H]1CCCN1C
  DUX4 inh: 6.8; DUX4 inh difference: 8.9; DUX4 inh control: -2.1
COc1ccc(C#Cc2ccc([C@H]3[C@H]4CN(C(=O)Nc5ccccc5)CCCCN4[C@H]3CO)cc2)cc1
  DUX4 inh: 7.2; DUX4 inh difference: 34.4; DUX4 inh control: -27.3
CCCC(=O)Nc1ccc2c(c1)OC[C@@H](C)N(C(=O)c1cccnc1)C[C@@H](C)[C@H](OC)CN(C)C2=O
  DUX4 inh: -5.7; DUX4 inh difference: -10.1; DUX4 inh control: 4.4
CC(C)CC#Cc1ccc([C@@H]2[C@@H](CO)N3C(=O)CN(S(=O)(=O)c4cccc(F)c4)C[C@H]23)cc1
  DUX4 inh: ?; DUX4 inh difference: .; DUX4 inh control: .
Cc1noc(C)c1NC(=O)NCC[C@H]1CC[C@H](NC(=O)Cc2cccnc2)[C@@H](CO)O1
  DUX4 inh: 3.1; DUX4 inh difference: 5.1; DUX4 inh control: -1.9
COCCN(C[C@@H]1N[C@@H](CO)[C@H]1c1ccc(-c2ccccc2)cc1)C(C)=O
  DUX4 inh: 3.3; DUX4 inh difference: -3.9; DUX4 inh control: 7.2
OC[C@H]1[C@H](c2ccc(-c3cccc(F)c3)cc2)[C@H]2CN(Cc3cncnc3)CCCCN21
  DUX4 inh: 2.0; DUX4 inh difference: 14.0; DUX4 inh control: -12.0
C[C@@H]1CN([C@@H](C)CO)C(=O)c2c(c3ccccc3n2C)-c2ccccc2CO[C@H]1CN(C)Cc1ccccc1C(F)(F)F
  DUX4 inh: ?; DUX4 inh difference: .; DUX4 inh control: .

CO[C@H]1CN(C)C(=O)c2ccc(NC(=O)C3CCC3)cc2OC[C@@H](C)N(Cc2ccccn2)C[C@H]1C
  DUX4 inh: -0.3; DUX4 inh difference: -3.2; DUX4 inh control: 2.9
OC[C@@H]1[C@@H](c2ccc(/C=C/c3ccccc3)cc2)[C@H]2CN(Cc3ccncc3)CCCCN12
  DUX4 inh: 11.5; DUX4 inh difference: 12.7; DUX4 inh control: -1.2
N#C[C@H]1[C@@H](c2ccccc2C2=CCCCC2)[C@@H](CO)N1C(=O)NC1CCCC1
  DUX4 inh: ?; DUX4 inh difference: .; DUX4 inh control: .
O=C(C[C@@H]1CC[C@@H]2[C@H](COC[C@@H](O)CN2Cc2cc(F)cc(F)c2)O1)Nc1nccs1
  DUX4 inh: -10.0; DUX4 inh difference: -4.0; DUX4 inh control: -5.9

This part in full, from the start:
C[C@@H]1CN([C@H](C)CO)C(=O)c2cc(NC(=O)Cc3cn(C)c4ccccc34)ccc2O[C@@H]1CN(C)Cc1ccc2c(c1)OCO2
  DUX4 inh: -2.7; DUX4 inh difference: -1.0; DUX4 inh control: -1.7
CC=Cc1ccc2n(c1=O)C[C@@H]1[C@@H](CO)[C@H](C(=O)NC3Cc4ccccc4C3)N(CC3CCCC3)[C@H]21 (mixture of isomers)
  DUX4 inh: -9.6; DUX4 inh difference: -7.6; DUX4 inh control: -1.9
CCC(=O)Nc1ccc2c(c1)OC[C@H](C)N(Cc1ccccc1F)C[C@@H](C)[C@H](OC)CN(C)C2=O
  DUX4 inh: -9.2; DUX4 inh difference: -6.3; DUX4 inh control: -2.9
O=C(c1ccncc1)N1C[C@@H]2[C@H](c3ccccc31)[C@H](CO)N2C(=O)c1ccncc1
  DUX4 inh: -3.8; DUX4 inh difference: 0.0; DUX4 inh control: -3.8
C[C@@H]1CN([C@@H](C)CO)C(=O)c2c(c3ccccc3n2C)-c2ccccc2CO[C@@H]1CN(C)C(=O)[C@H]1CCCN1C
  DUX4 inh: 6.8; DUX4 inh difference: 8.9; DUX4 inh control: -2.1
COc1ccc(C#Cc2ccc([C@H]3[C@H]4CN(C(=O)Nc5ccccc5)CCCCN4[C@H]3CO)cc2)cc1
  DUX4 inh: 7.2; DUX4 inh difference: 34.4; DUX4 inh control: -27.3
CCCC(=O)Nc1ccc2c(c1)OC[C@@H](C)N(C(=O)c1cccnc1)C[C@@H](C)[C@H](OC)CN(C)C2=O
  DUX4 inh: -5.7; DUX4 inh difference: -10.1; DUX4 inh control: 4.4
CC(C)CC#Cc1ccc([C@@H]2[C@@H](CO)N3C(=O)CN(S(=O)(=O)c4cccc(F)c4)C[C@H]23)cc1
  DUX4 inh: ?; DUX4 inh difference: .; DUX4 inh control: .
Cc1noc(C)c1NC(=O)NCC[C@H]1CC[C@H](NC(=O)Cc2cccnc2)[C@@H](CO)O1
  DUX4 inh: 3.1; DUX4 inh difference: 5.1; DUX4 inh control: -1.9
COCCN(C[C@@H]1N[C@@H](CO)[C@H]1c1ccc(-c2ccccc2)cc1)C(C)=O
  DUX4 inh: 3.3; DUX4 inh difference: -3.9; DUX4 inh control: 7.2

OC[C@H]1[C@H](c2ccc(-c3cccc(F)c3)cc2)[C@H]2CN(Cc3cncnc3)CCCCN21
  DUX4 inh: 2.0; DUX4 inh difference: 14.0; DUX4 inh control: -12.0
C[C@@H]1CN([C@@H](C)CO)C(=O)c2c(c3ccccc3n2C)-c2ccccc2CO[C@H]1CN(C)Cc1ccccc1C(F)(F)F
  DUX4 inh: ?; DUX4 inh difference: .; DUX4 inh control: .
CO[C@H]1CN(C)C(=O)c2ccc(NC(=O)C3CCC3)cc2OC[C@@H](C)N(Cc2ccccn2)C[C@H]1C
  DUX4 inh: -0.3; DUX4 inh difference: -3.2; DUX4 inh control: 2.9
OC[C@@H]1[C@@H](c2ccc(/C=C/c3ccccc3)cc2)[C@H]2CN(Cc3ccncc3)CCCCN12
  DUX4 inh: 11.5; DUX4 inh difference: 12.7; DUX4 inh control: -1.2
N#C[C@H]1[C@@H](c2ccccc2C2=CCCCC2)[C@@H](CO)N1C(=O)NC1CCCC1
  DUX4 inh: ?; DUX4 inh difference: .; DUX4 inh control: .
O=C(C[C@@H]1CC[C@@H]2[C@H](COC[C@@H](O)CN2Cc2cc(F)cc(F)c2)O1)Nc1nccs1
  DUX4 inh: -10.0; DUX4 inh difference: -4.0; DUX4 inh control: -5.9
COc1ccc(-c2ccc(C3[C@H]4CNC[C@@H]3N4S(=O)(=O)c3cccc(Cl)c3)cc2)cc1 (stereo not given in full)
  DUX4 inh: 13.2&2.6; DUX4 inh difference: 2.1&-13.9; DUX4 inh control: 11.1&16.5
O=C(C[C@@H]1C[C@H]2c3cc(NC(=O)c4ccc5c(c4)OCO5)ccc3O[C@H]2[C@H](CO)O1)NCCN1CCCCC1
  DUX4 inh: 2.0; DUX4 inh difference: -1.0; DUX4 inh control: 3.0
CO[C@@H]1CN(C)C(=O)c2cc(NC(=O)c3ccc4c(c3)OCO4)ccc2OC[C@@H](C)N(CCC(F)(F)F)C[C@H]1C
  DUX4 inh: ?; DUX4 inh difference: .; DUX4 inh control: .
COc1ccccc1NC(=O)N[C@H]1CC[C@H](CCNS(=O)(=O)c2ccc(Cl)cc2)O[C@H]1CO
  DUX4 inh: ?; DUX4 inh difference: .; DUX4 inh control: .

O=C(C[C@@H]1C=C[C@@H](NC(=O)c2ccccn2)[C@@H](CO)O1)NCc1cccc(F)c1
  DUX4 inh: 5.1; DUX4 inh difference: 4.2; DUX4 inh control: 1.0
CCCNC(=O)N[C@H]1CC[C@H](CC(=O)N2CCN(C)CC2)O[C@@H]1CO
  DUX4 inh: -1.2; DUX4 inh difference: -2.6; DUX4 inh control: 1.4
O=C(Nc1ccc2c(c1)[C@@H]1C[C@H](CC(=O)N3CCc4ccccc4C3)O[C@@H](CO)[C@@H]1O2)NC1CCCC1
  DUX4 inh: ?; DUX4 inh difference: .; DUX4 inh control: .
COc1cccc(S(=O)(=O)N2C[C@H](O)COC[C@H]3O[C@H](CC(=O)N4CCOCC4)CC[C@@H]32)c1
  DUX4 inh: 10.8; DUX4 inh difference: 9.0; DUX4 inh control: 1.8
CCC(=O)N1CC[C@H]2[C@@H]1c1cc(-c3ccc(F)cc3)ccc1N(C)[C@H]2CO
  DUX4 inh: 14.3; DUX4 inh difference: 27.5; DUX4 inh control: -13.2
CCCNC(=O)C[C@H]1CC[C@@H]2[C@H](COC[C@@H](O)CN2C(=O)c2ccccn2)O1
  DUX4 inh: 13.9; DUX4 inh difference: 11.5; DUX4 inh control: 2.4
CC(C)NC(=O)N1CC2(C1)[C@H](c1ccccc1)[C@@H](CO)N2CCC(F)(F)F
  DUX4 inh: 11.4; DUX4 inh difference: 6.0; DUX4 inh control: 5.4
C[C@H](CO)N1C[C@H](C)[C@@H](CN(C)Cc2ccc3cccnc3c2)OCc2cnnn2CCCC1=O
  DUX4 inh: -1.1; DUX4 inh difference: 2.8; DUX4 inh control: -3.9
O=C(C[C@H]1CC[C@H](NC(=O)Nc2ccc(C(F)(F)F)cc2)[C@@H](CO)O1)NCc1cccc(F)c1
  DUX4 inh: -3.7; DUX4 inh difference: 0.0; DUX4 inh control: -3.7
COc1ccccc1-c1ccccc1[C@@H]1[C@H](C#N)N(C(=O)C2CC2)[C@H]1CO
  DUX4 inh: 5.5; DUX4 inh difference: 4.7; DUX4 inh control: 0.8

COCC#Cc1cnc2c(c1)C(=O)N([C@H](C)CO)C[C@H](C)[C@H](CN(C)C(=O)c1cnccn1)O2
  DUX4 inh: -1.5; DUX4 inh difference: -1.1; DUX4 inh control: -0.4
Cc1cccc(S(=O)(=O)N2CC[C@@H]3[C@H]2c2cc(Br)ccc2N(C)[C@H]3CO)c1
  DUX4 inh: -0.4; DUX4 inh difference: -9.7; DUX4 inh control: 9.3
C[C@@H]1CN([C@@H](C)CO)C(=O)c2ccccc2-c2ccccc2CO[C@H]1CN(C)Cc1ccccc1C(F)(F)F
  DUX4 inh: -6.7; DUX4 inh difference: -0.2; DUX4 inh control: -6.5
C/C=C/c1ccc([C@H]2[C@@H](CO)N(c3nc(C)c(C)s3)[C@@H]2CNCC(C)C)cc1
  DUX4 inh: -3.4; DUX4 inh difference: -2.4; DUX4 inh control: -1.0
COCC(=O)N1[C@@H](CO)[C@@H](c2ccccc2)C12CN(C(=O)c1cccnc1)C2
  DUX4 inh: 8.3; DUX4 inh difference: -0.3; DUX4 inh control: 8.6
C[C@H]1CN([C@@H](C)CO)C(=O)c2c(c3ccccc3n2C)-c2ccccc2CO[C@@H]1CN(C)CC1CCCCC1
  DUX4 inh: ?; DUX4 inh difference: .; DUX4 inh control: .
CO[C@H]1CN(C)C(=O)c2cc(NS(C)(=O)=O)ccc2OC[C@@H](C)N(Cc2nccs2)C[C@@H]1C
  DUX4 inh: -1.7; DUX4 inh difference: -6.8; DUX4 inh control: 5.1
C/C=C/c1ccc([C@H]2[C@@H](CO)N(Cc3ccc(F)cc3)[C@H]2CNC(C)=O)cc1
  DUX4 inh: 1.2; DUX4 inh difference: -3.0; DUX4 inh control: 4.2
CN(C)C(=O)[C@H]1[C@H](CO)[C@H]2Cn3c(ccc(C4=CCCC4)c3=O)[C@@H]1N2S(=O)(=O)c1cn(C)cn1
  DUX4 inh: -1.4; DUX4 inh difference: 1.2; DUX4 inh control: -2.6
COc1ccccc1NC(=O)N1CCCCN2[C@H](C1)[C@H](c1ccc(-c3cccc(C#N)c3)cc1)[C@@H]2CO
  DUX4 inh: 1.2; DUX4 inh difference: 2.6; DUX4 inh control: -1.3

CO[C@H]1CN(C)C(=O)c2ccc(NC(=O)Cc3ccccc3)cc2OC[C@H](C)N(C(C)=O)C[C@@H]1C
  DUX4 inh: -0.2; DUX4 inh difference: -1.9; DUX4 inh control: 1.7
C[C@@H]1CN([C@@H](C)CO)S(=O)(=O)c2ccc(C3=CCCC3)cc2O[C@@H]1CN(C)Cc1cccc(C(=O)O)c1
  DUX4 inh: 7.0; DUX4 inh difference: 12.7; DUX4 inh control: -5.7
COc1ccc(NC(=O)N(C)C[C@H]2OCc3cnnn3CCCC(=O)N([C@@H](C)CO)C[C@H]2C)c(OC)c1
  DUX4 inh: 0.2; DUX4 inh difference: 0.4; DUX4 inh control: -0.2
CCCNC(=O)N(C)C[C@H]1Oc2cc(C#C[C@H](C)O)ccc2S(=O)(=O)N([C@H](C)CO)C[C@@H]1C
  DUX4 inh: 3.1; DUX4 inh difference: -1.4; DUX4 inh control: 4.5
CNC[C@@H]1OCCCC[C@@H](C)Oc2ccc(NC(=O)Nc3cccc4ccccc34)cc2C(=O)N([C@@H](C)CO)C[C@H]1C
  DUX4 inh: 0.6; DUX4 inh difference: 3.0; DUX4 inh control: -2.4
CN1c2ccc(Br)cc2[C@@H]2[C@@H](CCN2S(=O)(=O)c2cccc(F)c2)[C@H]1CO
  DUX4 inh: 5.0; DUX4 inh difference: 2.4; DUX4 inh control: 2.7
Cc1ccc(-c2cnc3c(c2)C(=O)N([C@@H](C)CO)C[C@H](C)[C@@H](CN(C)Cc2ccccc2C(=O)O)O3)cc1
  DUX4 inh: -6.2; DUX4 inh difference: -0.9; DUX4 inh control: -5.3
CCCNC(=O)N1CC(=O)N2[C@H](CO)[C@H](c3ccc(C#Cc4ccccc4)cc3)[C@H]2C1
  DUX4 inh: -4.0; DUX4 inh difference: 0.4; DUX4 inh control: -4.4
